FGF22 binding: binders of human FGF22 protein, primary screen, FGF22 synaptogenesis inhibitor project, biophysical, thermal shift, single point | calls only at 9.99 µM | 340,000 tested, 1.5% active | AID 651658, 2012 | recombinant FGF22 thermal shift, SYPRO orange fluorescence; percent of sucrose octasulfate shift, DMSO zero;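 active = melting point raised past a set limit in the mean and every replicate; three in four hits are not shown here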
Target sequence (Q9HCT0 whole entry, looked up): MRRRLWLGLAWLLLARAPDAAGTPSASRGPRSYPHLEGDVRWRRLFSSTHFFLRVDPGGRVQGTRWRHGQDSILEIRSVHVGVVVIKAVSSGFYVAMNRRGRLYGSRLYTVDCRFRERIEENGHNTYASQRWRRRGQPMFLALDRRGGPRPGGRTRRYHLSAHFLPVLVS
Calls only; i = inactive. Only part of the results is shown, so the mix of outcomes need not match the whole.

SMILES | FGF22 binding
CCNC(=O)C[C@H]1CC[C@H]2[C@@H](COC[C@H](O)CN2Cc2ccncc2)O1 | i
C[C@H](CO)N1C[C@H](C)[C@H](CN(C)C(=O)c2ccncc2)OCCCC[C@H](C)Oc2ccc(NC(=O)CCC(F)(F)F)cc2C1=O | i
CCCC(=O)Nc1ccc2c(c1)C(=O)N(C)[C@H]1CC[C@H](CC(=O)NCCOC)O[C@H]1CO2 | i
CN1OC[C@@H]2CN3C(=NCCc4ccccc4)Sc4ccccc4[C@@H]3C[C@@H]21 | i
CNC(=O)C[C@@H]1CC[C@@H]2[C@H](COc3ccc(NC(=O)c4cnccn4)cc3C(=O)N2C)O1 | i
CN1C(=O)c2cc(NC(=O)c3cccc(Cl)c3)ccc2OC[C@@H]2O[C@@H](CC(=O)NC3CCCCC3)CC[C@@H]21 | i
C[C@H]1CN([C@@H](C)CO)C(=O)Cc2cc(NS(=O)(=O)c3ccccc3)ccc2O[C@@H]1CN(C)S(=O)(=O)c1ccc(F)cc1 | i
CCCNC(=O)C[C@H]1CC[C@H]2[C@H](COc3ccc(NC(=O)Cc4cccs4)cc3C(=O)N2C)O1 | i
O=C(N[C@H](C(=O)N1CCC[C@H]1C(=O)NCCc1ccccc1Cl)C1CCCCC1)c1ccc(Cl)c(Cl)c1 | i
C[C@H](O)C#Cc1ccc([C@H]2[C@H]3CN(C(=O)c4ccc5c(c4)OCO5)CCCCN3[C@H]2CO)cc1 | i
CO[C@@H]1CN(C)C(=O)c2ccc(NC(=O)C3CC3)cc2OC[C@H](C)N(CC2CCOCC2)C[C@H]1C | i
Cc1noc(C)c1S(=O)(=O)N(C)C[C@H]1OCCCC[C@H](C)Oc2ccc(NC(=O)CCC(F)(F)F)cc2C(=O)N([C@@H](C)CO)C[C@H]1C | i
COc1ccc(S(=O)(=O)N(C)C[C@H]2Oc3ccc(NC(=O)Nc4ccc(F)cc4)cc3CC(=O)N([C@H](C)CO)C[C@H]2C)cc1 | i
COc1ccccc1-c1cccc2c3c([nH]c12)[C@@H]1C[C@H]2[C@@H](C(=O)N1CC3)[C@H](C)ON2C | i
C[C@@H]1ON(C)[C@H]2C[C@H]3c4cc(N5CCN(C)CC5)ccc4CCN3C[C@@H]12 | i
CN(C)C(=O)N1CCN(C(=O)[C@H](CCc2ccccc2)NC(=O)[C@H]2O[C@@H](n3cnc4c(N)ncnc43)[C@H](O)[C@@H]2O)CC1 | i
CC(C)C(=O)Nc1ccc2c(c1)C(=O)N(C)[C@H]1CC[C@@H](CC(=O)N[C@H](C)c3ccccc3)O[C@@H]1CO2 | i
Cc1noc(C)c1S(=O)(=O)Nc1ccc2c(c1)C(=O)N([C@@H](C)CO)C[C@H](C)[C@@H](CN(C)S(=O)(=O)c1cccs1)OCCCC[C@H](C)O2 | i
O=C(C[C@@H]1CC[C@H]2[C@@H](COC[C@H](O)CN2C(=O)c2cnccn2)O1)NCc1ccc(Oc2ccccc2)cc1 | i
C[C@@H]1CN([C@H](C)CO)C(=O)Cc2cc(NS(=O)(=O)c3cccs3)ccc2O[C@@H]1CN(C)Cc1ccncc1 | i
CC(C)[C@H](NS(=O)(=O)c1ccc(F)cc1F)C(=O)N1CCC[C@H]1C(=O)NCc1ccccc1 | i
COC(=O)C[C@@H]1CC[C@@H]2[C@H](COC[C@H](O)CN2S(=O)(=O)c2ccccc2OC)O1 | i
Cc1noc(C)c1S(=O)(=O)Nc1ccc2c(c1)CC(=O)N([C@@H](C)CO)C[C@@H](C)[C@H](CN(C)S(C)(=O)=O)O2 | i
CNC(=O)C[C@@H]1CC[C@@H]2[C@@H](COc3ccc(NC(=O)c4cccs4)cc3C(=O)N2C)O1 | i
COc1ccc(NC(=O)Nc2cccc3c2O[C@@H](CN(C)C(=O)Nc2cccc4ccccc24)[C@@H](C)CN([C@@H](C)CO)C3=O)cc1 | i
C[C@H]1CCCCO[C@@H](CN(C)CC2CCCCC2)[C@@H](C)CN([C@@H](C)CO)C(=O)c2cc(NC(=O)NC3CCCCC3)ccc2O1 | i
C[C@@H]1CCCCO[C@@H](CN(C)S(=O)(=O)c2ccc(F)cc2)[C@@H](C)CN([C@H](C)CO)C(=O)c2cc(NC(=O)Nc3ccccc3)ccc2O1 | i
C[C@@H]1CCCCO[C@H](CN(C)C(=O)CCCN(C)C)[C@@H](C)CN([C@H](C)CO)C(=O)c2cc(NC(=O)Nc3ccc(C(F)(F)F)cc3)ccc2O1 | i
Cc1ccccc1-c1cnc2c(c1)C(=O)N([C@@H](C)CO)C[C@H](C)[C@H](CN(C)C(=O)c1ccccc1)O2 | i
O=C(c1cccc(F)c1)N1CC2(C1)[C@H](c1ccccc1)[C@H](CO)N2Cc1ccccn1 | i
C[C@@H]1CCCCO[C@H](CN(C)S(C)(=O)=O)[C@@H](C)CN([C@H](C)CO)C(=O)c2cc(NS(C)(=O)=O)ccc2O1 | i
C[C@H](O)C#Cc1cnc2c(c1)C(=O)N([C@H](C)CO)C[C@H](C)[C@@H](CN(C)Cc1cncnc1)O2 | i
CCNC(=O)C[C@@H]1CC[C@@H]2[C@@H](COc3ccc(NC(=O)Nc4cccc(OC)c4)cc3C(=O)N2C)O1 | i
C[C@H](CO)N1C[C@H](C)[C@H](CN(C)C(=O)Nc2ccc(C(F)(F)F)cc2)Oc2ccc(NC(=O)CCCCCC(=O)Nc3ccccc3N)cc2CC1=O | i
COc1ccc(NC(=O)Nc2ccc3c(c2)[C@@H]2C[C@H](CC(=O)N4CCOCC4)O[C@H](CO)[C@@H]2O3)cc1 | i
COc1ccccc1S(=O)(=O)N1CC[C@H]2[C@H](CO)Nc3ccc(Br)cc3[C@H]21 | i
CC(=O)N1C[C@@H]2[C@H](c3ccccc31)[C@@H](CO)N2S(=O)(=O)c1ccccc1 | i
Cc1ccc(S(=O)(=O)Nc2ccc3c(c2)CC(=O)N([C@H](C)CO)C[C@@H](C)[C@H](CN(C)S(=O)(=O)c2ccc(F)cc2)O3)cc1 | i
Nc1ccn([C@@H]2O[C@H](C(=O)N[C@H](Cc3ccccc3)C(=O)N3CCC(F)(F)CC3)[C@@H](O)[C@H]2O)c(=O)n1 | i
CNC(=O)C[C@@H]1CC[C@H]2[C@H](COc3ccc(NC(=O)c4cnccn4)cc3C(=O)N2C)O1 | i
C[C@H]1CN([C@@H](C)CO)S(=O)(=O)c2ccc(/C=C/c3ccccc3)cc2O[C@@H]1CN(C)C(=O)c1ccccc1 | i
COc1ccc(NC(=O)Nc2ccc3c(c2)C(=O)N([C@@H](C)CO)C[C@H](C)[C@H](CN(C)S(=O)(=O)c2ccc(OC)cc2)OCCCC[C@@H](C)O3)cc1 | i
O=S(=O)(c1ccccc1F)N1CCCCN2[C@@H](CO)[C@H](c3ccc(-c4cccnc4)cc3)[C@@H]2C1 | i
C[C@@H]1CCCCO[C@H](CN(C)S(=O)(=O)c2ccc(F)cc2)[C@@H](C)CN([C@H](C)CO)C(=O)c2cc(NC(=O)Cc3ccccc3)ccc2O1 | i
COC(=O)C1=C(C)N(Cc2ccccc2C(F)(F)F)C(=NCC2CC2)NC1c1cccc(Cl)c1 (configuration not stated) | i
C[C@@H]1CCCCO[C@H](CN(C)CC2CCCCC2)[C@@H](C)CN([C@H](C)CO)C(=O)c2cc(NS(=O)(=O)c3ccc(Cl)cc3)ccc2O1 | i
O=S(=O)(c1ccccc1)N1CCCCN2[C@@H](CO)[C@H](c3ccc(-c4ccccc4F)cc3)[C@@H]2C1 | i
COCCNC(=O)C[C@H]1CC[C@H](NC(=O)NC2CCCCC2)[C@H](CO)O1 | i
C[C@H](CO)N1C[C@H](C)[C@H](CN(C)CC2CCOCC2)Oc2ncc(-c3cccc(F)c3)cc2C1=O | i
Nc1[nH]c(C(=O)c2ccc(Cl)cc2)c(-c2ccc(Br)cc2)c1C(=O)NCc1ccc(Cl)cc1Cl | i
CC(CNC(=O)[C@@H](Cc1ccccc1)NC(=O)[C@H]1O[C@@H](n2ccc(=O)[nH]c2=O)[C@H](O)[C@@H]1O)c1ccccc1 (some centres not stated) | i
C[C@H]1CCCCO[C@H](CN(C)C(=O)Nc2ccc(C(F)(F)F)cc2)[C@@H](C)CN([C@@H](C)CO)C(=O)c2cc(NC(=O)Nc3ccc(C(F)(F)F)cc3)ccc2O1 | i
COc1ccccc1NC(=O)N1C[C@@H]2N[C@H](C1)C2c1ccc(-c2cccc(C#N)c2)cc1 (some centres not stated) | i
CCCNC(=O)C[C@@H]1CC[C@@H]2[C@H](COc3ccc(NC(=O)c4ccc(OC)cc4)cc3C(=O)N2C)O1 | i
O=C(CN1CCOCC1)N1CC[C@@H]2[C@H]1c1cc(-c3ccccc3F)ccc1N[C@@H]2CO | i
CC(C)NC(=O)N1CCCCN2[C@@H](CO)[C@H](c3ccc(C#C[C@@H](C)O)cc3)[C@@H]2C1 | i
CN1C(=O)c2cc(NC(=O)c3cccc(Cl)c3)ccc2OC[C@@H]2O[C@@H](CC(=O)NC3CCCCC3)CC[C@H]21 | i
C[C@@H]1CN([C@@H](C)CO)C(=O)c2cc(NC(=O)Nc3cccc4ccccc34)ccc2O[C@@H](C)CCCCO[C@@H]1CN(C)Cc1ccc2c(c1)OCO2 | i
O=C(C[C@H]1CC[C@H]2[C@@H](COC[C@H](O)CN2Cc2nccs2)O1)NCc1ccccc1Cl | i
C[C@H]1CCCCO[C@@H](CN(C)Cc2ccc3c(c2)OCO3)[C@@H](C)CN([C@@H](C)CO)C(=O)c2cc(NC(=O)Cc3ccccc3)ccc2O1 | i

(further entries)
SMILES | FGF22 binding
CN1CCN(C(=O)C[C@@H]2C[C@H]3c4cc(NC(=O)Nc5ccccc5F)ccc4O[C@H]3[C@@H](CO)O2)CC1 | i
Cc1noc(C)c1NC(=O)N(C)C[C@H]1OCCCC[C@@H](C)Oc2ccc(NS(C)(=O)=O)cc2C(=O)N([C@H](C)CO)C[C@@H]1C | i
O=C(NC1CCCC1)N1[C@@H]2CNC[C@H]1C2c1ccc(-c2cccnc2)cc1 (some centres not stated) | i
c1cncc(Oc2ccc(NCCc3c[nH]c4ccccc34)cc2)c1 | i
C[C@@H]1CCCCO[C@H](CN(C)Cc2ccc3c(c2)OCO3)[C@@H](C)CN([C@H](C)CO)C(=O)c2cc(NC(=O)Nc3cccc4ccccc34)ccc2O1 | i
C[C@@H]1CN([C@@H](C)CO)C(=O)c2cc(NS(C)(=O)=O)ccc2O[C@@H](C)CCCCO[C@@H]1CN(C)Cc1ccc(C(F)(F)F)cc1 | i
O=C(C[C@H]1C[C@H]2c3cc(NC(=O)NC4CCCC4)ccc3O[C@H]2[C@@H](CO)O1)NCc1cc(F)ccc1F | i
Nc1ccn([C@@H]2O[C@H](C(=O)N[C@H](Cc3ccccc3)C(=O)NCC(F)(F)F)[C@@H](O)[C@H]2O)c(=O)n1 | i
C[C@@H]1ON(C)[C@H]2C[C@H]3c4[nH]c5c(-c6cccc(Cl)c6)cccc5c4CCN3C(=O)[C@@H]12 | i
Cc1cc(C(=O)Nc2ccc3c(c2)C(=O)N(C)[C@H]2CC[C@@H](CC(=O)O)O[C@H]2CO3)no1 | i
Cc1[nH]c2ccccc2c1CC(=O)Nc1ccc(N(C)c2cccnc2)c(-c2cccc(Cl)c2)c1 | i
C[C@H]1CCCCO[C@H](CN(C)S(=O)(=O)c2cn(C)cn2)[C@@H](C)CN([C@@H](C)CO)C(=O)c2cc(NC(=O)Nc3ccc(C(F)(F)F)cc3)ccc2O1 | i
CN(C)c1ccc2c(c1)[C@@H]1C[C@@H](CC(=O)NCc3ccccc3F)O[C@@H](CO)[C@@H]1O2 | i
CO[C@@H]1CN(C)C(=O)c2ccc(NC(=O)c3ccno3)cc2OC[C@H](C)N(C(=O)C2CCC2)C[C@@H]1C | i
COc1ccc(NC(=O)Nc2ccc3c(c2)C(=O)N([C@@H](C)CO)C[C@H](C)[C@@H](CN(C)C(=O)Nc2ccc4c(c2)OCO4)O3)cc1 | i
C[C@@H]1CCCCO[C@@H](CN(C)C(=O)Nc2ccc3c(c2)OCO3)[C@@H](C)CN([C@H](C)CO)C(=O)c2cc(NC(=O)NC3CCCCC3)ccc2O1 | i
Cc1ccc(S(=O)(=O)Nc2cccc3c2O[C@H](CN(C)S(=O)(=O)c2ccc(F)cc2)[C@H](C)CN([C@H](C)CO)C3=O)cc1 | i
C[C@@H]1CCCCO[C@@H](CN(C)Cc2ccc3c(c2)OCO3)[C@H](C)CN([C@@H](C)CO)C(=O)c2cc(NC(=O)Cc3ccccc3)ccc2O1 | i
Cc1ccccc1NC(=O)Nc1ccc2c(c1)C(=O)N(C)[C@@H]1CC[C@@H](CC(=O)O)O[C@H]1CO2 | i
COc1cc2c(c(OC)c1OC)C1(CCCCC1)CC2NCC=C(C)C (configuration not stated) | i
C[C@@H]1CCCCO[C@@H](CN(C)C(=O)Cc2ccccc2)[C@@H](C)CN([C@@H](C)CO)C(=O)c2cc(NS(=O)(=O)c3ccc(F)cc3)ccc2O1 | i
